Source: PubChem BioAssay (National Center for Advancing Translational Sciences (NCATS))
D2 ag – activates the human D2 dopamine receptor; P14416; DiscoveRx PathHunter D2 beta-arrestin, luminescence, 90 min; 100% = 57 uM dopamine signal; activation, % (test concentration not listed); 0.084% of 360,000 active; AID 624465; in the data active = activation above about 40%; inconclusive = about 15% to 40%; inactive = below about 15%; also: compound concentration not given in the record; the text of the record calls up to 30% inactive
Target sequence (P14416 whole entry, looked up): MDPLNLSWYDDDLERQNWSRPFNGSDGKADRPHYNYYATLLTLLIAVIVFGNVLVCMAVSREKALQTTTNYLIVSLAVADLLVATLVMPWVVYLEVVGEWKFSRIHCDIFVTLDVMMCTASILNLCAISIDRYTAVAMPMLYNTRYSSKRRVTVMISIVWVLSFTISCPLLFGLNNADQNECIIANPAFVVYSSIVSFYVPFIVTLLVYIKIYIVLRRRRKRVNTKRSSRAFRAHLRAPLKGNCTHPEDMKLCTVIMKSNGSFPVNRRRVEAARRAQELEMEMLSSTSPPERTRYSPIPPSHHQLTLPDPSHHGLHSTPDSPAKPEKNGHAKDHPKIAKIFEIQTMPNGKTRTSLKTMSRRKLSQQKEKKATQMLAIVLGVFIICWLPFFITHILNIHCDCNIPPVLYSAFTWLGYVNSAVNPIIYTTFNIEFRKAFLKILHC
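DiscoveRx PathHunter D2 beta-arrestin cells (2,100/well) attached overnight, then compound-stimulated 90 min at 37 C in HBSS/10 mM HEPES/0.1% Tween-20 buffer; beta-galactosidase complementation read by luminescence after 1 h at ambient temperature. Dopamine 57 uM final (EC100) as control.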
gsp antagonist – antagonists of gsp mutant (McCune-Albright syndrome); Potency, µM (titrated, usually from 76.9 µM), for the others: at the top dose activity change, negative = inhibition, usual class: inhibitors; 0.4% of 340,000 active; gsp-mutant cells, cAMP HTRF, 30 min; control for the full effect not named in the record; active = falling curve of any shape with a large fitted effect; inconclusive = falling curve, mostly with a smaller effect; inactive = flat or rising curve; cell line not stated here;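 also: intracellular cAMP measured with PDE inhibitor Ro 20-1724 present during compound exposure; potency is read from the fitted curve at half-maximal effect; % is scaled to controls: 0 for no effect and ±100 for the full control effect; nearly all actives have a fitted effect of over 65% in size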
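Measurement of cellular cAMP by homogeneous time-resolved fluorescence following a 30 min compound exposure at 37C. The PDE inhibitor […] was present throughout; the assay buffer was DPBS with 0.05% BSA and 0.005% Tween 20.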
Menin-MLL FL inh – inhibitors of human menin-MLL interaction, wild-type MLL peptide; 290,000 tested, under 10 active; AID 1766; FP activity change, % at 61.4 µM; Fluorescence polarization, fluorescein-MLL peptide displacement from menin; inconclusive = falling polarisation curve, or a change in total fluorescence; inactive = total fluorescence flat and polarisation flat or rising; no compound was filed as active; the % refers to the polarisation; negative = inhibition;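 also: % of control where 0% means no effect; inhibitors lower the polarisation; unlabelled MLL peptide was the positive control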
PINK1 modulator – PINK1 expression modulation; Potency, µM (top dose mostly 76.6 µM), for inactives: top-dose activation (PINK1 increase), actives largely listed as activators; PINK1 immunofluorescence, high-content cytometry, 24 h; AID 624263; 0.2% of 410,000 active; active = well fitted activation curve with a large enough effect; inconclusive = small, poorly fitted or top-dose-only effect; inactive = flat fitted curve, though single readings scatter; cell line not stated here;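 also: potency is read from the fitted curve at half-maximal effect; % of control where 0% means no effect; nearly all actives have a fitted effect of over 65% in size; a mitochondrial uncoupler was the plate control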
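Measures PINK1 amount and localization on or inside mitochondria by immunofluorescence. Stable cells get compounds at 5 concentrations for 24 hours before fixation and staining; CCCP controls included.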
gsp ag – activates gsp, the McCune-Albright syndrome mutation; AID 624287; 0.13% of 340,000 active; gsp mutant cells, cAMP HTRF, 30 min; control for the full effect not named in the record; Potency, µM (top dose mostly 76.9 µM), for the others: at the top dose activation (cAMP increase), most hits filed as activators; active = well fitted activation curve with a large enough effect; inconclusive = small, poorly fitted or top-dose-only effect, or another doubt; inactive = no such curve, though single readings can be large or run the other way; cell line not stated here;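 also: phosphodiesterase inhibitor Ro 20-1724 added with compounds to block cAMP breakdown; potency is read from the fitted curve at half-maximal effect; nearly all actives have a fitted effect of over 60% in size; about a fifth of the inactives were tested at one dose only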
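Cells stably selected in G418 were plated at 2000/well, grown 16-24 hr, then given compounds in DMSO with the PDE inhibitor […] (300 uM solution added) for 30 min at 37C; cAMP was read by HTRF.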
ClpP mod – qHTS Assay for Activators of ClpP. ATP-dependent Clp protease proteolytic subunit (Bacillus subtilis (strain 168)), P80244. purified B. subtilis ClpP, FRET peptide cleavage, 20 min. Potency, µM (top dose mostly 57.5 µM), inactives show top-dose activity change, negative = active. 1.9% of 340,000 active. AID 651965, 2013; active = well fitted falling curve with a large enough effect; inconclusive = small, poorly fitted or top-dose-only effect; inactive = no such curve, though single readings can be large or run the other way; also: potency is read from the fitted curve at half-maximal effect; the source files actives as falling curves though it sought activators and does not explain the sign; nearly all actives have a fitted effect of over 65% in size; many hits overshoot -100%
Target sequence (P80244 whole entry, looked up): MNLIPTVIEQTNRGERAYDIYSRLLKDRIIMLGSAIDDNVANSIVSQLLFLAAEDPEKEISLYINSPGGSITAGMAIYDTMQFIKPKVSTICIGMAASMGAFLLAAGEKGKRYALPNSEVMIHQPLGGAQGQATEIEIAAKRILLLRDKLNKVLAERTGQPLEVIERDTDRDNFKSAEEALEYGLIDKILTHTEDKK
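ClpP 10 microg/mL final, pH 8 Tris/KCl buffer with BSA, glycerol, Tween-20; compound pinned in; FRET-FV substrate; RT 20 min; Ex320/Em430; ΔFRET vs ADEP 5.8 microM, DMSO, no enzyme.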
Sfp PPTase inh – inhibitors of Bacillus subtilis Sfp phosphopantetheinyl transferase | Biochemical Sfp PPTase activity, qHTS | Potency, µM, inactives show max response, negative = inhibition, actives largely listed as inhibitors | 3.5% of 310,000 active; active = well fitted inhibition curve with a large enough effect; inconclusive = small, poorly fitted or top-dose-only effect, or another doubt; inactive = no such curve, though single readings can be large or run the other way;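 also: the enzyme is Sfp with the accession as filed and its product quenches rhodamine fluorescence; potency is read from the fitted curve at half-maximal effect; 0% = enzyme reaction without inhibitor and -100% = no enzyme wells; top concentration of the series not given in the record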
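After 15 min at room temperature with compound, 15 nM Sfp received 5 uM rhodamine-CoA plus 12.5 uM BHQ-2-ybbR (50 mM Hepes pH 7.6, 10 mM MgCl2). Rate came from the fluorescence difference over 30 min, ex 525/em 598 nm.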
* = called active by the depositor; ? = inconclusive; · = no result given; [ ] = another dose, or the depositor's remark.

SMILES,D2 ag,gsp antagonist,Menin-MLL FL inh,PINK1 modulator,gsp ag,ClpP mod,Sfp PPTase inh
O=C(Nc1ccccc1)C1CC(=O)N(C2CCCCC2)C1 (stereo unspecified),0.0,-2%,-0.9,1.9%,-22%,0.7%,-8%
O=c1[nH]c(=O)n(C2CC(O)C(CO)O2)cc1Br (stereo unspecified),-1.1,12%,·,-5.0%,1%,-0.1%,·
NC(=O)c1cc(-c2ccccc2)nc(Oc2ccccc2)n1,-0.1,-23%,-0.4,1.3%,15%,-4.5%,4%
Cc1ccc(-n2ncc3c(NCc4ccccc4)ncnc32)cc1,-1.1,4%,-1.2,9.4%,-7%,-28%,14%
Cc1ccc(CNC(=O)CCNC(=O)c2ccc(Br)o2)cc1,-1.8,7%,1.2,9.9%[38.3 µM],27%,-1.7%,13%
O=C(CCN1C(=O)C2CCCCC2C1=O)NNC(=O)c1cccc(Cl)c1 (stereo unspecified),-1.7,8%,-3.9,-0.6%,-42%[inhibitor],1.3%,-15%
CC(=O)Nc1cccc(NC(=O)CSc2nc(=O)n(CCN3CCOCC3)c3c2CCC3)c1,-4.3,3%,·,2.8%,-52%[inhibitor],?,·
CC(C)NC(=O)COc1coc(CN2CCN(C(=O)c3ccco3)CC2)cc1=O,-3.6,14%,·,1.7%,-37%[inhibitor],-12%,·
Cc1cccc(-c2cccc(NC(=O)C3CCCN(C(=O)c4cccnc4)C3)c2)c1 (stereo unspecified),-1.9,-12%,·,0.6%,?,0.2%,-1%
O=C(Nc1ccc(Cl)cc1)NC1CCCCC1,3.4,3%,3.4,1.0%,8%,1.0%,31%[activator]
CCN(CC)CCNC(=O)c1ccc(NC(=O)c2ccc(S(=O)(=O)N3CCCC3)cc2)cc1,5.7,10%,·,-0.4%,1%,1.2%,·
CCOC(=O)c1c(C)n(C)c2ccc(OCCN(C)C)cc12,-3.5,-15%,-1.2,-3.2%,?,-2.7%,16%
CC1CCC(NC(=O)C2c3ccccc3C(=O)N2Cc2cccs2)CC1 (stereo unspecified),-0.9,-1%,1.0,-2.5%,-12%,-17%,-5%
Cc1ccc(/C=N/NC(=O)COc2ccc(Cl)c(C)c2)o1,-2.3,1%,-12,3.2%,16%[15.4 µM],·,-12%
O=C(c1cccc(F)c1)N1CCN(C(=O)C(c2ccccc2)c2ccccc2)CC1,9.2,-26%,1.2,0.2%,26%[15.4 µM],-1.0%,10%
CCn1c(Cc2ccccc2)nnc1SCC(=O)c1c(N)n(C2CC2)c(=O)[nH]c1=O,-4.1,10%,·,-0.5%,3%,-2.3%,·
COC(=O)c1cc2c(s1)-c1ccccc1CC2,-3.4,4%,0.1,6.8%,-37%[inhibitor],?,-10%
OC1C2CN3CCN(C2)CC1(Cc1ccccc1)C3 (stereo unspecified),-2.3,-2%,2.6,-0.9%,9%,-0.7%,17%
CN1CCN(c2cc(C(F)(F)F)nc(-c3ccccn3)n2)CC1,1.3,1%,0.2,4.8%,-18%,·,-10%
CC1(C)C[C@H]2C3=CCC4[C@@]5(C)CC[C@H](O)C(C)(C)C5CC[C@@]4(C)[C@]3(C)[C@@H](O)[C@@H](O)[C@@]2(CO)[C@@H](O)[C@@H]1O (stereo partly specified),-1.0,-7%,·,3.0%,·,0.9%,·
CCCc1nc2nc(C)c(NS(=O)(=O)c3ccc(C4CCCCC4)cc3)c(=O)n2[nH]1,5.2,-9%,2.4,-0.6%,-10%,·,24%
N=C1C(c2nc(-c3ccc(Br)cc3)cs2)=C(O)CN1NC(=O)c1ccc([N+](=O)[O-])cc1,-2.0,-11%,-0.6,1.0%,-12%[15.4 µM],·,-13%
COCCCNC(=O)CC1C[C@H](C(=O)N2CCOCC2)[C@@]2(CCC3CCCC3)c3[nH]c4ccc(OC)cc4c3CCN2C1=O (stereo partly specified),-3.0,0%,·,1.0%,·,-0.4%,·
CCc1cc(-c2n[nH]c(=S)n2C(C)c2ccccc2)cs1 (stereo unspecified),3.4,0%,-1.4,5.7%[38.3 µM],1%,-4.6%,-19%
COC(=O)c1ccc(CN2CCN(CC=C(C)C)C(CCO)C2)cc1 (stereo unspecified),-1.3,7%,-0.4,-0.3%,-4%[15.4 µM],·,14%
CC1(C)C([N+](=O)[O-])C(c2ccc(Cl)cc2)NC(c2ccc(Cl)cc2)C1[N+](=O)[O-] (stereo unspecified),-3.9,0%,0.4,8.0%,10%,-1.5%,7%
Cc1cc(C)c(S(=O)(=O)N2CCOC2CNC(=O)C(=O)NCCc2c[nH]c3ccccc23)c(C)c1 (stereo unspecified),-3.4,-12%,2.5,0.6%,-52%[inhibitor],-0.3%,6%
CCC(C)N(C(=O)c1csnn1)C(C(=O)NC1CCCC1)c1c(F)cccc1Cl (stereo unspecified),-0.6,-2%,4.9,0.2%,?,·,21%
Cc1ccc(S(=O)(=O)N2CCC[C@H]2C(=O)Nc2ccc(F)cc2C)cc1,-3.6,6%,·,2.7%,4%,2.2%,·
COC(=O)c1ccc(CN2C(=O)NC(c3ccccc3)(c3ccccc3)C2=O)o1,-0.6,0%,-3.7,0.8%,7%[15.4 µM],·,24%
CCC(=O)NC(=S)NNC(=O)c1ccc(NC(=O)c2ccccc2)cc1,-3.7,3%,-6.4,-1.6%,11%,-2.4%,-24%
Cc1ccccc1Cn1c(C)c(C(=O)NCc2ccc(Cl)c(Cl)c2)sc1=O,12,·,·,-0.3%,·,-0.7%,·
Cc1c(NC(=O)c2cc3ccccc3o2)cccc1-n1cnnn1,-0.1,·,·,1.3%,-58%[inhibitor],3.9%,·
Cc1nnsc1C(=O)NNC(=O)Nc1ccccc1,-3.3,6%,-4.7,2.4%,-25%,0.4%,28%
Cc1cc(C)c(C)c(S(=O)(=O)N[C@@H](C)C(=O)OCc2cc(=O)n3cc(Br)ccc3n2)c1C,0.7,-3%,0.1,0.3%,16%,·,5%
O=C(C[C@H]1C[C@H](C(=O)N2CCOCC2)[C@@]2(CCC3CCCC3)c3[nH]c4ccc(Cl)cc4c3CCN2C1=O)NCCc1ccccn1,-0.7,-9%,·,29%,·,-1.4%,·
COc1cccc(CNC(=O)CSCc2cnn(-c3ccccc3)c2-n2cccc2)c1OC,1.0,?,-17,-4.1%,-13%,-3.8%,12%
COc1ccc(C(=O)CCC(=O)Nc2ccc(N3CCN(C)CC3)cc2)cc1OC,-2.6,4%,·,-0.5%,11%,0.1%,·
Cc1cccc(NC(=O)c2ccccc2-c2ccccc2)c1,4.1,-15%,1.8,-0.3%,1%[15.4 µM],·,15%
Cc1oc(-c2ccccc2Cl)nc1CS(=O)(=O)CC(=O)NC1CCCC1,-5.1,1%,-2.5,0.4%,-45%[inhibitor],-1.5%,11%

Three of the entries above in order of their number in gsp ag, rising:
SMILES | D2 ag | gsp antagonist | Menin-MLL FL inh | PINK1 modulator | gsp ag | Sfp PPTase inh
Cc1ccc(-n2ncc3c(NCc4ccccc4)ncnc32)cc1 | -1.1 | 4% | -1.2 | 9.4% | -7% | 14%
CC1(C)C([N+](=O)[O-])C(c2ccc(Cl)cc2)NC(c2ccc(Cl)cc2)C1[N+](=O)[O-] (stereo unspecified) | -3.9 | 0% | 0.4 | 8.0% | 10% | 7%
COc1ccc(C(=O)CCC(=O)Nc2ccc(N3CCN(C)CC3)cc2)cc1OC | -2.6 | 4% | · | -0.5% | 11% | ·

Continued.
SMILES,D2 ag,gsp antagonist,Menin-MLL FL inh,PINK1 modulator,gsp ag,ClpP mod,Sfp PPTase inh
COc1cccc(NC(=O)CN(C)C(=O)c2c(-c3c(F)cccc3Cl)noc2C)c1,1.3,-3%,·,-1.5%,-3%,-3.7%,·
O=C(NCCCN1CCOCC1)C1CCN(S(=O)(=O)c2cccc(C(F)(F)F)c2)CC1,-6.2,10%,·,-0.5%,26%,?,·
COc1ccccc1/C=N/OCc1cc(C(C)=O)ccc1OC,1.2,-3%,-1.4,4.5%,31%[15.4 µM],0.0%,-24%
Cc1nn(Cc2cccc(C(=O)NC3CCCCC3)c2)c(C)c1Cl,0.0,2%,-0.1,-1.9%,8%,-2.4%,-7%
CC1CCN(S(=O)(=O)c2ccc3c(c2)c(=O)c(C(=O)NCc2cccs2)cn3C)CC1,-0.9,11%,2.8,7.3%,28%[15.4 µM],-2.0%,6%
Cc1ccc(-c2nc3ccccc3n2C)o1,5.9,2%,5.0,7.5%,?,16µM*,35µM*
NS(=O)(=O)c1cc(C(=O)OCC(=O)NC2CCCCCCC2)ccc1Cl,-1.5,1%,·,-0.1%,0%,-0.8%,·
CC(=O)n1cc([C@@H]2C=C(C(=O)N3CCN(Cc4ccc5c(c4)OCO5)CC3)O[C@H](OCc3ccc(CO)cc3)C2)c2ccccc21,1.3,-21%,3.4,-0.8%,·,-4.1%,7%
C=CC(C)(C)c1c(O)c(CC=C(C)C)c(O)c2c(=O)c3ccc(O)c(O)c3oc12,?,?,·,?,·,-2.4%,·
NC(=O)c1nsnc1-c1ccccc1O,-5.8,13%,8.3,0.9%,-29%,1.3%,-8%
CC1=C(C(=O)N(C(C)C)C(C)C)CC(CC(=O)NC2CCCCC2)C(=O)N1Cc1ccccc1 (stereo unspecified),-4.5,·,·,-1.9%,-2%,-2.4%,·
CNc1cccc(-c2c(OC)cccc2OC)n1,-0.5,·,·,2.1%,·,4.5%,·
N#Cc1ccc(OCC(=O)Nc2cccc(S(=O)(=O)NC3=NCCCCC3)c2)cc1,1.4,-20%,·,0.2%,-3%,0.7%,·

An unsorted share of the library; overall some 5.1% were active at least once.
